eIF4H inh = human eIF4H binding inhibitors, primary screen, translation initiation inhibitor project, biochemical, uHTS, fluorescence polarization; Eukaryotic translation initiation factor 4H (Homo sapiens), Q15056; eIF4H fluorescence polarization binding assay; inhibition, % at 35 µM; 290,000 tested, 0.94% active; AID 2012, 2009;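 active = 50% or more with normal probe brightness, or confirmed in later tests; inconclusive = above 50% with abnormal brightness, or retests that disagree; inactive = below 50% or failed in later tests; about a fifth of its hits are not listed in these tables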;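 note: calls also rest on retests at 20 µM and on dose response follow-up; 0% = protein and probe with vehicle and 100% = probe without protein; strong numbers were not always called active; many hits fall short of the cut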
UUG fidelity = modulators of yeast start codon fidelity, primary screen, whole organism, S. cerevisiae, single point, plate reader | S. cerevisiae UUG-firefly luciferase reporter, luminescence/redox ratio | activity score, % at 18.7 µM | AID 602363, 2012 | 350,000 tested, 0.13% active;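 active = replicate mean at a twofold rise or more, about +100% in these data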;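 note: firefly luciferase made from a UUG start codon reports start codon fidelity; reporter light over untreated wells divided by growth signal over untreated wells; some hits fall short of that in this replicate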
MT1-MMP act inh = blockers of MT1-MMP proenzyme processing, primary screen, HT1080 RFP-PRO-GFP cells, GFP/RFP fluorescence; Matrix metalloproteinase-14 (Homo sapiens), P50281; GFP/RFP ratio fluorescence, overnight; percent of plate control window, DMSO zero; GFP/RFP ratio change, % at 20 µM; 360,000 tested, 0.061% active; AID 651647, 2012;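 active = GFP/RFP ratio change of at least 30% with cell ATP level not reduced by more than half and red fluorescence within 50% of control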; note: strong numbers were not always called active
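Material – HT1080 RFP-PRO-GFP cells · Control set – DMSO wells and RFP-L50D-GFP cells · Incubation – overnight cell settling, then overnight compound exposure, 37 °C, 5% CO2 · Compound dosing – single-point 20 µM compound, 1% DMSO · Read-out – GFP/RFP fluorescence ratio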
PABP polyA inh = PABP poly(A) RNA binding inhibitors, primary screen, biochemical, fluorescence polarization, uHTS. Polyadenylate-binding protein 1 (Homo sapiens), P11940. 290,000 tested, 1% active. AID 2014, 2009. inhibition, % at 35 µM;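 active = 50% or more with normal probe brightness, or confirmed in later tests; inconclusive = above 50% with abnormal brightness, or retests that disagree; inactive = below 50% or failed in later tests; about a fifth of its hits are not listed in these tables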;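 note: calls also rest on retests at 20 µM and on dose response follow-up; controls were probe without protein and protein plus probe with vehicle; some compounds called inactive have numbers as strong as hits; many hits fall short of the cut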
Target sequence (P11940 whole entry, looked up): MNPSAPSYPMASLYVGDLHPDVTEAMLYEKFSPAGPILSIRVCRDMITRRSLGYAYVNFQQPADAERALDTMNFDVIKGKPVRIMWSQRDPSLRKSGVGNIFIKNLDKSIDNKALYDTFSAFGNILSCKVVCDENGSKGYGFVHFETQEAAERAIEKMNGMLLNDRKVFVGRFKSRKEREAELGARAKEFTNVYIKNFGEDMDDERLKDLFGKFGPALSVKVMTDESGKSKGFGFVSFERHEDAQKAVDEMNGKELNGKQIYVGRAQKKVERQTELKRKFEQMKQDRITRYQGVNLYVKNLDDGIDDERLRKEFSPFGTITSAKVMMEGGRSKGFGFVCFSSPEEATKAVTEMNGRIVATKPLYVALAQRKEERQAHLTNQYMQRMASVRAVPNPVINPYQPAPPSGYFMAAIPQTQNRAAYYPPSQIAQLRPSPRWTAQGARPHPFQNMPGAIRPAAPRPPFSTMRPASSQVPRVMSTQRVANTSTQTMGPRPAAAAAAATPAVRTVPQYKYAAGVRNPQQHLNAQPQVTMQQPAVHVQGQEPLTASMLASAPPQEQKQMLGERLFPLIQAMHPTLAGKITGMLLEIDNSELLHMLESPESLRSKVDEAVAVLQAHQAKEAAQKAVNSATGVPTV
HIV Env fusion = inhibitors of HIV-1 Env-driven cell-cell fusion, primary screen, HeLa-JRFL effector, CEM21 target cells, luciferase; 360,000 tested, 1.1% active; AID 651610, 2012; inhibition, % at 12.3 µM;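 active = mean replicate inhibition score of at least 50 and every replicate individually at or above 50; inconclusive = only one of the two criteria met; inactive = mean below 50 and not all replicates reaching 50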;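 note: 0% = plate neutral controls and 100% = maraviroc near 300 nM; one replicate is shown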
Rce1 inh = yeast Rce1p protease inhibitors, primary screen, biochemical, fluorescence, cell-free homogeneous; yeast membranes, quenched prenylated peptide cleavage fluorescence; calls only; 290,000 tested, 0.27% active; AID 2563, 2010;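 active = fall in fluorescence gain of 50% or more versus controls, with final raw signal at or below 3038400; inconclusive = same 50% fall but final raw signal above 3038400; inactive = fall in fluorescence gain under 50%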;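 note: plate controls were neutral control wells for no effect and wells lacking membranes for full effect; tested at 10 µM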
CSC inhib = cancer stem cell viability inhibitors, primary screen, luminescence; cancer stem cell-like cells viability; inhibition, % at 7.5 µM; 300,000 tested, 1.1% active; AID 2717, 2010;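 active = mean at 75% or more and at least half the replicates too; inconclusive = mean and replicates disagree; tested in HMLE shEcad cells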;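 note: 0% = median of negative and 100% = median of positive control wells; the first replicate is given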
eIF4H inh retest = second read-out of eIF4H inh, no call of its own (marks repeat the call); inhibition, %; compound at 20 µM; confirmation average;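 mean of two retest wells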
PABP polyA inh retest = second read-out of PABP polyA inh, no call of its own (marks repeat the call); inhibition, %; compound at 20 µM; confirmation repeats;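 mean of two retest wells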
MT1-MMP act inh RFP = recorded beside MT1-MMP act inh, whose call it bears; RFP signal change, %; measured here: RFP expression control read;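 0 = vehicle wells; hits needed this value within 50% of zero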
* = called active by the depositor; i = inactive; ? = inconclusive; / = no result given.

The first three records, to show the layout:
SMILES | eIF4H inh | UUG fidelity | MT1-MMP act inh | MT1-MMP act inh RFP | PABP polyA inh | HIV Env fusion | Rce1 inh | CSC inhib | others
COc1cc(S(=O)(=O)Nc2cccc(C)c2)ccc1NC(=O)c1cccnc1 | -12.9 | / | -2.2 | -3.3 | -4.2 | -26.3 | i | 13.4
Cc1ccc(Cn2nc3c4cc(F)ccc4n(Cc4ccc(F)cc4)cc-3c2=O)cc1 | -0.3 | -10.8 | 0.9 | -0.2 | -8.1 | -25.0 | i | /
Nc1nnnn1CC(=O)N/N=C/c1ccccn1 | -1.4 | -1.9 | 3.3 | 5.7 | -5.9 | -5.0 | i | -4.4

This part in full, from the first entry:
SMILES | eIF4H inh | UUG fidelity | MT1-MMP act inh | MT1-MMP act inh RFP | PABP polyA inh | HIV Env fusion | Rce1 inh | CSC inhib | others
COc1cc(S(=O)(=O)Nc2cccc(C)c2)ccc1NC(=O)c1cccnc1 | -12.9 | / | -2.2 | -3.3 | -4.2 | -26.3 | i | 13.4
Cc1ccc(Cn2nc3c4cc(F)ccc4n(Cc4ccc(F)cc4)cc-3c2=O)cc1 | -0.3 | -10.8 | 0.9 | -0.2 | -8.1 | -25.0 | i | /
Nc1nnnn1CC(=O)N/N=C/c1ccccn1 | -1.4 | -1.9 | 3.3 | 5.7 | -5.9 | -5.0 | i | -4.4
COc1ccc(CC(=O)Nc2cccc(C(=O)Nc3cccc(C)c3)c2)cc1 | -14.9 | / | / | / | -0.4 | / | i | 1.7
O=C(CN1CC(=O)Oc2ccccc21)OCC(=O)c1ccccc1 | 14.8 | 4.6 | 4.4 | 7.4 | 0.8 | / | i | 20.2
CCOC(=O)N1CCC(NC(=O)C2=CCN(S(=O)(=O)c3ccc(OC)cc3)CC2)CC1 | -11.1 | / | -1.0 | -7.0 | -2.6 | -5.0 | i | /
O=C(NCCc1ccccc1)c1ccc(-n2cnnn2)cc1 | 0.9 | / | 0.0 | 4.0 | -6.6 | / | i | -3.0
CCC1C(=O)NCCN1Cc1nc(-c2ccc(C)s2)oc1C (centres undefined) | -3.3 | -7.0 | -2.4 | 1.5 | -7.4 | 16.9 | i | -22.4
COc1cc2c(cc1OC)C(C(=O)N(C)Cc1ccccc1)C(c1cccnc1)N(C)C2=O (centres undefined) | -0.9 | 1.4 | -2.0 | 4.1 | 5.8 | -5.7 | i | -7.3
O=C1CSCN1c1cc(Cl)ccc1Cl | 0.1 | / | 1.6 | -1.0 | -1.0 | 14.4 | i | 2.1
CS(=O)(=O)c1cccc(-c2nnc(NC(=O)C3=COCCO3)o2)c1 | / | / | 6.6 | 6.0 | / | / | i | -0.6
CCC(=O)Nc1cccc(C(=O)OCC(=O)c2ccccc2Cl)c1 | -7.1 | -15.7 | -2.4 | 1.6 | 10.8 | -160.2 | i | -6.5
CNC(=S)N1N=C(c2ccc(C)cc2)CC1c1ccc(N(C)C)cc1 (centres undefined) | 33.2 | -18.4 | 6.8 | 4.6 | -3.4 | -4.8 | i | -5.1
Cc1ccc(S(=O)(=O)Nc2ccc3c(c2)nc(CCN2CCOCC2)n3C)cc1 | -10.0 | / | 4.3 | 0.5 | -7.1 | 8.4 | i | -4.1
CC(C)n1ncc2c(C(=O)NCCOc3ccccc3F)cc(C3CC3)nc21 | / | 5.6 | -4.3 | -7.0 | / | 20.7 | / | 4.9
CCCCn1nnc(NC(=O)c2ccc(-c3cccc([N+](=O)[O-])c3)o2)n1 | 10.0 | / | / | / | 6.0 | / | i | 0.3
Cc1cc(C)c(NC(=O)Cn2nnc(C(=O)NCc3cccs3)c2N)c(C)c1 | 4.4 | -11.8 | 3.4 | 2.0 | -5.1 | -37.4 | i | -13.4
Cc1ccc(S(=O)(=O)N2C[C@@H]3[C@H]4CC[C@H](C4)[C@@H]3[C@@H](C)[C@H]2c2ccn(Cc3ccccc3)c2)cc1 | / | -1.9 | -12.2 | -10.8 | / | 22.5 | / | /
Cn1nc(OC(=O)Nc2ccc(F)cc2)cc1C(F)(F)F | -1.8 | -12.2 | -3.2 | -1.3 | -5.5 | 13.2 | i | -20.4
O=C(c1ccc(CS(=O)Cc2ccc(Cl)cc2)o1)N1CCN(c2ccccc2)CC1 (centres undefined) | -14.5 | 14.7 | 2.5 | -1.5 | 3.7 | 9.9 | i | -10.0
CC1(C)CNc2cc(N)ccc2S1 | 73.2 | / | -37.9 | 7.2 | 3.3 | -21.7 | i | 9.0 | eIF4H inh retest=-0.6;PABP polyA inh retest=15.6
COC(=O)CCC(=O)Nc1cccc([N+](=O)[O-])c1 | -9.2 | / | -0.3 | -2.4 | -3.4 | 5.0 | i | -4.4
CC(=O)OCc1c(C)cc(C)c(/C=C(/C#N)C(N)=O)c1C | 4.9 | / | -5.3 | 0.2 | 6.3 | -1.0 | i | 8.4
O=S(=O)(c1ccc(Br)cc1)N1CCn2c(nc3ccccc32)C1 | 0.4 | 5.0 | 0.8 | 6.8 | -2.2 | 3.8 | i | -5.2
COc1ccc2c(OC)cc(-c3ccccc3)nc2c1 | -3.2 | -13.8 | -3.5 | -4.0 | -18.5 | / | i | 1.0
COc1ccc(Cn2c(=O)[nH]c3cc(C(=O)NCCc4ccc(S(N)(=O)=O)cc4)ccc3c2=O)cc1 | -4.3 | / | 3.3 | -2.2 | 1.6 | 5.7 | i | 7.9
CCOC(=O)c1c(C)[nH]c(C(=O)NCC(c2ccco2)N2CCCCC2)c1C (centres undefined) | / | -8.3 | 0.9 | 0.2 | / | 2.0 | / | -5.0
CS(=O)(=O)N(CC(=O)N1CCN(Cc2ccccc2)CC1)Cc1ccccc1 | -3.9 | -1.8 | 0.5 | -3.9 | 2.0 | / | i | -4.0
Cc1ccc(NC(=O)CN(C)CC(=O)Nc2cccc(F)c2)cc1[N+](=O)[O-] | -2.3 | / | -6.0 | -31.4 | 4.2 | 17.3 | i | 10.9
Cc1ccc(CS/C(Nc2ccccc2C)=C(\C#N)C(=O)NCc2ccco2)c(C)c1 | -2.3 | -18.0 | -18.8 | -17.2 | 9.4 | ? | i | 9.5
COCCNC(=O)C1(C)CCCN(C(=O)Cc2ccc3ccccc3c2)C1 (centres undefined) | / | -13.6 | 0.1 | 3.4 | / | 14.7 | / | /
COc1cccc(CN(C(=O)COc2ccc(Cl)cc2)C2CCS(=O)(=O)C2)c1 (centres undefined) | -2.5 | 6.7 | 3.1 | 0.9 | -3.3 | 2.1 | i | -5.2
O=C(NCc1cccc(F)c1)c1[nH]c(C(F)(F)F)nc1-c1ccccc1 | / | -7.3 | -1.5 | -7.4 | / | 3.0 | / | /
O=C(NC1(C(=O)O)CCCC1)C(Cl)Cl | / | -13.8 | -1.4 | 2.1 | / | -6.4 | / | /
COc1cccc(Nc2c3c(nc4c(-c5ccccc5)c(C)nn24)CCC3)c1 | -7.6 | / | 4.5 | -4.2 | -3.6 | -13.3 | i | 8.0
CSc1nnc(Cc2cc(=O)[nH]c(=O)[nH]2)n1-c1cccc(C)c1 | 0.1 | 7.0 | 0.6 | 3.2 | -0.4 | -11.1 | / | -7.1
COc1ccc(OC)c(NC(=O)COC(=O)/C=C/c2ccccc2Cl)c1 | -1.2 | -15.9 | 1.2 | -0.1 | -5.2 | 1.1 | i | 9.2
COc1ccc(C2OCC3(CO2)SC(=O)NC3=O)cc1 (centres undefined) | 1.0 | / | 1.2 | 3.4 | 15.0 | 9.3 | i | /
O=S1(=O)CCO[C@H]2Cc3ccccc3[C@H]2N1Cc1ccccc1F | 6.2 | 16.8 | -0.7 | -0.8 | 9.1 | 27.3 | i | 8.2
COc1ccc(N=Cc2sc3ccccc3c2Cl)cc1 | -10.3 | -45.6 | 0.2 | -2.4 | -4.6 | / | i | 13.0
O=C(O)CCCCCN1C(=O)/C(=C\c2ccncc2)SC1=S | -8.6 | / | 1.4 | -2.7 | -1.1 | -9.8 | i | 29.2
Cc1ccccc1Cn1nnc(C(=O)Nc2ccc3c(c2)OCCO3)c1N | / | -1.6 | 4.0 | -3.9 | / | -115.5 | i | 23.5
S=c1[nH]nc(-c2cccnc2)n1/N=C/C=C/c1ccccc1 | -9.2 | / | 2.8 | 0.9 | -2.3 | 32.2 | i | -3.7
N#Cc1ccc(Cl)cc1NC(=O)COC(=O)[C@H](CCC(N)=O)NC(=O)c1ccc(F)cc1 | 6.6 | / | -1.4 | 0.3 | 2.9 | -9.9 | i | 0.9
COCCNc1nc(C)c(C(C)=O)s1 | 7.8 | / | 2.4 | 3.0 | 0.8 | 11.3 | i | -21.6
Cc1ccc(NCCCn2cnc3c(OCc4ccccc4)ncnc32)cc1C | / | 3.4 | 0.6 | -8.5 | / | 2.3 | / | /
Nc1[nH]n2c(=O)c3c(nc2c1N=Nc1ccccc1)CCCC3 | 18.3 | / | 7.9 | -8.9 | 6.8 | / | i | /
CC1CCCN(C(=O)c2ccc(COc3ccccc3Br)cc2)C1 (centres undefined) | -5.1 | 3.7 | -1.8 | -6.0 | -2.2 | / | i | 1.0
COc1ccccc1-n1c(SCC(N)=O)nc2sc3c(c2c1=O)CCC3 | -9.3 | 1.0 | 2.9 | -0.6 | -9.6 | -41.4 | i | 2.3
CCN(C(=O)COC(=O)/C=C/c1ccc(C)o1)c1c(N)n(Cc2ccccc2)c(=O)[nH]c1=O | / | -4.0 | 3.5 | 0.8 | / | 2.6 | / | /
CCOc1ccc(N2C(=O)CC(Sc3ncccn3)C2=O)cc1 (centres undefined) | 2.0 | -9.1 | 1.2 | -3.9 | -6.5 | -0.7 | i | -8.8
CNc1c([N+](=O)[O-])cnn1-c1cccc(Cl)n1 | -5.7 | / | -0.8 | 2.6 | -2.0 | -10.9 | i | -26.3
Oc1c(C(c2cccs2)N2CCN(c3ccc(F)cc3)CC2)sc2ncnn12 (centres undefined) | -6.1 | -2.4 | 5.9 | 1.2 | 3.8 | -27.0 | i | -15.1
CSc1ccc(CCNS(=O)(=O)c2c(C)[nH]c(C)c2C(=O)N2CCCCC2)cc1 | 0.9 | 15.9 | 0.5 | -0.9 | 8.3 | 10.3 | i | 1.6
CSCCC(NC(=O)c1ccco1)C(=O)OCC(=O)N1c2ccccc2NC(=O)C1(C)C (centres undefined) | / | -4.7 | -5.0 | 3.9 | / | 5.0 | / | /
COCCSc1ccccc1C(=O)Nc1ccc2c(c1)OCCO2 | -7.7 | -9.4 | 8.4 | 2.6 | -2.0 | 9.8 | i | -4.0
O=C(NCc1ccco1)C1CCN(S(=O)(=O)Cc2ccccc2)CC1 | 4.0 | -13.2 | 0.1 | 0.6 | 7.3 | / | i | 21.8
Cc1cc(NC(=O)c2cccc(Cl)c2)n[nH]1 | / | -35.9 | 1.4 | -3.6 | / | -9.5 | i | -1.3
COc1ccc2[nH]c3c(c2c1)CCN1C(=O)C(CC(=O)NCCC2=CCCCC2)C[C@H](C(=O)N2CCCCC2)[C@@]31C (some centres undefined) | / | 7.8 | -1.8 | -8.3 | / | -35.2 | / | /
